Screening results: PubChem BioAssay, several laboratories
Insulin prom inh – TRM-6 insulin promoter activity inhibition; TRM-6 cells (human fetal islet line), insulin promoter-eGFP reporter, imaging; reporter expression induced with tamoxifen; inhibition, % at 2 µM; hit rate 0.9% among 130,000; AID 1273;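 active = inhibition above the mean plus 3 SD, with well images judged a real hit on visual review, cut at about 60% in these data, passing the limit was not always enough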
HSV augment – HSV replication enhancement | HSV replication augmentation in cells, fold increase | maximum fold increase | hit rate 0.005% among 220,000;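 active = peak rise of 1.5-fold or more in the series; tested in PC3 cells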;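 note: first round at 10 µM; read as green reporter fluorescence; hits show the peak of a series up to 25 µM; 1 = signal of infected wells without compound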
RGS16-Gao HTS – modulates binding between human RGS16 and Galphao. O15492+P09471. bead-based flow cytometry RGS16-Galphao binding, fluorescence; actives lie on both sides. hit rate 0.38% among 220,000. binding response (% of control), % at 10 µM;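 active = below 25% or above 175%, edge rows of some plates excepted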;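 note: Galphao activated by GDP with aluminum fluoride before binding; 100% = wells without compound and 0% = beads without RGS; some results beyond the cut were filed as inactive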
Target sequence (O15492 whole entry, looked up): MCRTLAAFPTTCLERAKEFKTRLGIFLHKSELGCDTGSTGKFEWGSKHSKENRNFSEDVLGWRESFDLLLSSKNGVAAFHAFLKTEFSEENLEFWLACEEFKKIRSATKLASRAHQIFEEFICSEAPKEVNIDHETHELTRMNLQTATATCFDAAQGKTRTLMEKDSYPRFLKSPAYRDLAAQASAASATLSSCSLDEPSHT
Target sequence (P09471 whole entry, looked up): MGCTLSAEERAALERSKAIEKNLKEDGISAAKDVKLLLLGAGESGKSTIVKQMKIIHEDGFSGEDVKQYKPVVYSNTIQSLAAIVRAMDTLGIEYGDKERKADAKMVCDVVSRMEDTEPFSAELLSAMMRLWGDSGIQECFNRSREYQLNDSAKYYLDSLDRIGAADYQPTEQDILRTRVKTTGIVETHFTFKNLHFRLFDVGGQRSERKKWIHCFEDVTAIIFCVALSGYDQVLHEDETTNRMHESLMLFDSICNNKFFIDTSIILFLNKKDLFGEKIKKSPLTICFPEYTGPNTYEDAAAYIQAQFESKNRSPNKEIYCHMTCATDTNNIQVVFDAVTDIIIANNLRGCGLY
PKD1 kinase inh – inhibitors of human PKD1 kinase; inhibition, %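 (about 10 µM by stock and volumes)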; hit rate 0.056% among 200,000; PKD1 kinase fluorescence polarization assay; AID 797;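 active = inhibition of 50% or more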;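 note: controls were vehicle for no effect and a reference inhibitor for full effect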
GALR2 ag – agonists of human galanin receptor 2 (GALR2); O43603; GALR2-expressing cells, agonist activation read-out; activation, %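 (tested at 5 µM)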; hit rate 0.48% among 140,000;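 active = above mean plus 3 SD of all compounds, about 5% in these data, not always enough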;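 note: 0% = vehicle buffer wells and 100% = reference agonist at full effect; tested in CHO reporter cells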
Target sequence (O43603 whole entry, looked up): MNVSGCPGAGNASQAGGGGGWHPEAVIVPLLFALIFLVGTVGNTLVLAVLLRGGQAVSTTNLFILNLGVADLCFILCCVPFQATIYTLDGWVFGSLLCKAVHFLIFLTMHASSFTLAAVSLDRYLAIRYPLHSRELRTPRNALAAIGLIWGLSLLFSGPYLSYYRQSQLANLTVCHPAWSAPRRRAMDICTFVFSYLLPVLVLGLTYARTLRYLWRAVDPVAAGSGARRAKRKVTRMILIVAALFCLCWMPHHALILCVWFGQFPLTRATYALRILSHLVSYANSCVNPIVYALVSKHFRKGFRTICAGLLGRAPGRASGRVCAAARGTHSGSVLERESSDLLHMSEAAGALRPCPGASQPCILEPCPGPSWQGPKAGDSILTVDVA
Insulin prom inh cell count – also measured in Insulin prom inh; calls as there; normalized cell count, %; measured here: cell count, toxicity; reference of the scale not given here;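 cells exposed to compound for 48 h; stained nuclei by imaging scaled within each plate; lower means fewer cells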
HSV augment primary fold – further read-out of HSV augment, marked with its call; fold increase; compound at 10 µM; measured here: primary screen fold increase 10 uM; tested in PC3 cells;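 GFP signal in the first replicate; 1 = infected wells without compound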
* hit, by the source's call; i = inactive; nt = not tested or not shown.

SMILES	HSV augment primary fold	Insulin prom inh cell count	RGS16-Gao HTS	HSV augment	GALR2 ag	PKD1 kinase inh	Insulin prom inh
COC(=O)c1ccc2c(=O)n(CCN3CCOCC3)c(SCC(=O)C(C)(C)C)nc2c1	0.94	104.2	107.5	i	-2.5	-6.2	28.6
CCOc1ccc(Nc2oc(-c3ccco3)nc2C#N)cc1	1.05	nt	99.5	i	-1.8	-7.4	nt
COc1ccc(NC(=O)c2ccc(NS(=O)(=O)c3c(C)noc3C)cc2)cc1OC	0.993	nt	99.4	i	-1.2	3.0	nt
Cc1cccc(C(C)(C)C)c1OCCN1CCCC1	0.92	155.6	102.9	i	-0.8	1.5	-20.0
CC(=O)c1ccc(OC(C)C)c(CSC(=N)N)c1	0.85	nt	110.2	i	nt	-2.5	nt
C=CCn1c(NC(=O)c2ccc(Br)o2)c(S(=O)(=O)c2ccccc2)c2nc3ccccc3nc21	1.03	86.4	101.1	i	3.6	-10.7	32.4
O=C(Nc1ccc2c(c1)OCO2)Oc1ccccc1	1.01	87.7	98.0	i	-4.2	0.1	-13.5
COc1ccc(C(C)=O)cc1COC(=O)CNC(=O)c1ccc(F)cc1	0.9	nt	78.4	i	-1.7	-0.9	nt
O=C(C(Cc1ccccc1)NS(=O)(=O)c1cccc2cccnc12)N1CCc2ccccc21 (stereo unspecified)	0.92	nt	101.1	i	-2.2	-0.8	nt
COc1ccc(C2CC(=O)Oc3c2c(=O)n(C)c2ccccc32)c(OC)c1OC (stereo unspecified)	0.94	56.7	87.6	i	nt	8.4	-63.0
CCOC(=O)CNC(=O)c1ccc(OCC(F)(F)F)cc1	0.99	nt	98.3	i	nt	5.7	nt
CC1CC(C)(C)OC(C[N+]2(C)CCCCC2)O1 (stereo unspecified)	1.06	nt	98.8	i	nt	nt	nt
CC(=O)OC(COc1ccccc1)Cn1cnc2cc(C)c(C)cc21 (stereo unspecified)	0.96	nt	97.5	i	nt	-56.1	nt
CCOc1ccc(OCC)c(NC(=O)CN2CCN(c3cccc(C)c3)C(C)C2)c1 (stereo unspecified)	nt	104.3	102.2	nt	-0.2	4.8	-75.0
CCC(C(=O)O/N=C(\N)c1ccc(C)cc1)c1ccccc1 (stereo unspecified)	0.913	52.4	96.7	i	-0.4	-1.6	-6.5
COC(=O)c1ccc(CC(=O)c2ccc(O)cc2O)o1	0.97	nt	97.3	i	-0.5	-0.9	nt
CCc1c(C)nc2c(-c3ccccc3)c(C)nn2c1Nc1ccc(NC(C)=O)cc1	0.95	nt	94.9	i	nt	nt	nt
COc1ccccc1NC(NC(=O)c1ccccn1)C(Cl)(Cl)Cl (stereo unspecified)	0.99	105.7	102.8	i	-2.1	-15.1	28.1
COc1ccc(NC(=S)/N=C(\N)Nc2nc(C)c3ccc(C)cc3n2)cc1	0.9	nt	101.3	i	nt	-6.5	nt
CCC(=O)N(Cc1cc2ccccc2[nH]c1=O)C(C)C	1.07	nt	97.7	i	-4.0	-5.3	nt
O=C1C2C3C=CC(C3)C2C(=O)N1c1ccc2ccccc2n1 (stereo unspecified)	0.86	100.0	93.4	i	-3.1	-1.4	9.5
CSc1nsc2nc(=O)c(/C=C3\C(C)=Nc4ccc(C)cc43)c(N)n12	1.04	134.5	101.5	i	nt	-2.4	-6.7
CC1(C)CC(CCNS(=O)(=O)c2ccccc2)(c2ccccc2)CCO1 (stereo unspecified)	nt	114.1	106.2	nt	0.4	0.4	-76.9
COc1cc(OC)cc(N(C(=O)c2ccco2)C(C(=O)NC2CCCC2)c2ccc(N(C)C)cc2)c1 (stereo unspecified)	1.05	nt	104.6	i	-1.7	-10.5	nt
O=C(C[n+]1ccccc1)N1CCCc2ccccc21	0.98	nt	91.9	i	nt	-5.4	nt
S=C(Nc1ccc(Cl)c(Cl)c1)NC1CCN(Cc2ccccc2)CC1	0.64	nt	112.2	i	-0.1	0.7	nt
COC(=O)c1ccsc1NC(=O)C1=COCCO1	0.93	nt	98.8	i	-2.0	3.6	nt
CCOC(=O)c1csc(-n2nc(C)cc2C(F)(F)F)n1	1.06	nt	106.5	i	nt	1.8	nt
CC(C)NC(=O)c1cnc(N2CCN(c3ccccn3)CC2)c2ccccc12	0.99	67.0	104.6	i	-2.3	-9.0	29.4
C=C1C(=O)O[C@@H]2[C@H]1[C@@H](OC(=O)/C(C)=C/C)C/C(C)=C\C(=O)/C=C(\C)[C@@H]2O	0.51	nt	101.5	i	nt	nt	nt
CC(=O)Nc1ccc(S(=O)(=O)NC2(C(F)(F)F)N=C(c3ccccc3)NC2=O)cc1 (stereo unspecified)	1.62	104.0	47.0	i	-2.9	-6.5	-25.0
CCCCOc1ccc(-c2nc(SCC(N)=O)n[nH]2)cc1	0.85	40.3	103.0	i	-2.0	-7.5	14.7
COC(=O)[C@H](Cc1ccccc1)NC(=O)Nc1ccc(S(N)(=O)=O)cc1	0.96	113.7	298.7	i	-1.6	-6.0	-8.3
CCSC(=O)N(CC)CC(=O)Nc1c(CC)cccc1CC	0.88	61.2	102.4	i	-2.7	-7.2	-72.4
Cc1nnc(SCC(=O)Nc2ccccc2N2CCOCC2)s1	0.82	101.4	106.7	i	0.9	3.7	-44.7
Cc1[nH]c2ccccc2c1/C=N/NC(=S)NCc1ccccc1	0.99	nt	159.2	i	nt	1.6	nt
Cc1ccc(/C=C/C(=O)N2CCN(S(=O)(=O)c3cccs3)CC2)o1	0.74	nt	83.8	i	nt	nt	nt
Cc1nn(-c2ccccc2)c(Cl)c1/C=N/NC(=O)c1ccc(CNc2ccccc2)o1	0.84	109.9	91.2	i	-0.8	-3.8	14.3
CCc1n[nH]c(=O)n1Cn1c(CC)n[nH]c1=O	0.91	29.7	94.9	i	-3.0	-0.4	-53.6
Nc1cccc2c1C(=O)N(C(=O)c1ccc(S(=O)(=O)N3CCCCCC3)cc1)C2=O	0.957	127.7	103.3	i	-2.4	2.6	17.9
CC(C)(C)N=C1NN=C(c2cc3ccccc3o2)CS1	1.13	nt	94.0	i	-0.9	-4.5	nt
Cc1ccc(NC(=O)C2CCN(C(=O)c3ccccc3C)CC2)cc1	0.9	82.6	106.8	i	0.4	-3.7	-14.3
C=CCOn1c(=O)c(-c2ccccc2)[n+]([O-])c2ccccc21	1.02	86.7	99.8	i	nt	0.7	-88.2
CCOC(=O)c1ccc(Nc2c(OCC)c(=O)c2=O)cc1	0.93	nt	95.8	i	nt	nt	nt
Cc1ccc(-c2nn3c(C)nnc3s2)cc1NC(=O)c1ccco1	nt	nt	102.6	nt	nt	-10.5	nt
Cc1ccc(-n2c(Cc3ccccc3)n[nH]c2=S)cc1	0.69	215.6	94.0	i	-1.6	3.9	8.8
Cc1cc(C)c(NC(=O)c2c[nH]c(=S)n2-c2ccc(F)cc2)c(C)c1	0.9	111.5	94.3	i	nt	-2.1	53.3
CCn1cc(C(=O)N2CCN(c3ccccc3F)CC2)c(=O)c2ccc(C)nc21	nt	nt	139.6	nt	nt	3.0	nt
O=C(Nc1cccc(S(=O)(=O)c2cccc(NC(=O)C3CC3)c2)c1)C1CC1	0.86	66.1	100.4	i	-3.0	-5.2	22.9
Cc1ccc(-n2c(=O)cc(N3CCN(Cc4ccccc4)CC3)[nH]c2=O)cc1	0.96	nt	99.4	i	-2.9	-3.8	nt
Cc1oc2c(O)c(O)ccc2c(=O)c1-c1ccccc1	0.89	nt	89.1	i	nt	nt	nt
Cc1cc(C)nc(NC(=O)c2ccc(Cl)c([N+](=O)[O-])c2)n1	1.08	nt	97.4	i	nt	nt	nt
COc1nc(OCC#N)nc(N2CCCCC2)n1	0.94	128.9	101.5	i	nt	-3.8	6.7
O=C(NC1C(=O)NNC1c1ccccc1)c1ccc(F)cc1 (stereo unspecified)	0.84	94.3	90.0	i	-0.8	9.6	15.4
CCOC(=O)c1c(C)[nH]c(C(=O)COC(=O)C2=NNC(=O)CC2)c1C	1.01	77.1	70.3	i	nt	-1.7	14.3
CCOc1ccc(C(Nc2ccc(C)cc2)P2(=O)OCCCO2)cc1 (stereo unspecified)	0.97	102.5	95.6	i	-4.5	-5.0	34.8
O=C(N1CCCC1)C(F)(F)Oc1ccc(F)cc1	0.89	nt	101.7	i	nt	2.0	nt
COc1ccc(-c2cc(=O)oc3cc(OC(C)C(=O)O)ccc23)cc1 (stereo unspecified)	1.08	85.0	100.3	i	-1.0	-8.4	-9.3
O=C(c1ccco1)N1CCN(c2cc(C(F)(F)F)nc3ncnn23)CC1	1.21	nt	104.4	i	-2.4	-3.6	nt
CCCc1nnc(NC(=O)CCCC(=O)O)s1	0.99	49.5	100.5	i	-0.2	2.9	40.3

New compounds follow:
SMILES	HSV augment primary fold	Insulin prom inh cell count	RGS16-Gao HTS	HSV augment	GALR2 ag	PKD1 kinase inh	Insulin prom inh
O=C(O)C(O)Cc1c[nH]c2ccccc12 (stereo unspecified)	1.13	93.4	69.0	i	-1.9	0.1	18.2
CCN(CC)c1ccc(C(=O)OCC(=O)NCC2CCCO2)cc1 (stereo unspecified)	0.84	71.5	103.5	i	-1.3	-6.3	17.1
COC(=O)/C=C1\N/C(=N\c2nc(C)cc(C)n2)N(c2ccc(C)cc2)C1=O	1	149.4	79.9	i	-3.4	-12.8	18.8
Cc1ccnc(SCCn2c(N3CCN(Cc4ccccc4)CC3)nc3c2c(=O)[nH]c(=O)n3C)n1	0.88	nt	104.9	i	1.1	-6.5	nt
Cc1ccc(-c2c3c(=O)n(C)c(=O)n(C)c3cn2Cc2ccccn2)cc1	1.04	nt	100.4	i	0.8	-20.1	nt
CCOc1nc(NCCc2ccc(OC)c(OC)c2)nc(N2CCN(c3ccc(OC)cc3)CC2)n1	0.82	nt	95.9	i	-1.5	4.5	nt
COCCCNC1CS(=O)(=O)CC1O (stereo unspecified)	0.85	nt	104.5	i	nt	nt	nt
C=CCNC(=O)c1cc(-c2ccccc2O)on1	0.97	nt	107.2	i	-1.9	-5.8	nt
Cc1cccc(N(CC(N)=O)S(C)(=O)=O)c1C	1.06	148.7	99.0	i	-1.5	-0.6	6.1
c1cc(CNc2ccc3c(c2)OCCO3)ccn1	0.93	108.6	98.7	i	-2.4	0.5	9.1
CN(C)/C=N/NC(=O)c1ccccc1Cl	0.92	nt	93.7	i	nt	nt	nt
COc1ccc(NC(=O)c2ccc(S(=O)(=O)C(F)F)cc2)c(OC)c1	0.97	nt	95.3	i	nt	-1.3	nt
CCN(c1ccccc1)S(=O)(=O)c1ccc(NC(=S)NC(=O)c2cccs2)cc1	0.9	170.3	96.3	i	-2.5	10.3	0.0
CC1C[N+](=C2C=C(N3CCOCC3)CC(C)(C)C2)CC(C)O1 (stereo unspecified)	0.98	nt	100.0	i	nt	nt	nt
CS(=O)(=O)N1CCN(c2ccccc2NC(=O)c2ccc3ccccc3c2)CC1	1.03	103.3	104.0	i	-1.7	-6.2	27.8
O=C(NCc1ccccn1)C1CCN(Cc2cnn(-c3ccccc3)c2-n2cccc2)CC1	0.75	148.7	nt	i	0.4	-1.7	-30.0
CC1CCc2c(sc(NC(=O)CN3CCN(C(=O)c4ccco4)CC3)c2C#N)C1 (stereo unspecified)	1.01	100.3	104.5	i	1.2	3.0	-33.3
Cc1ccc(C)c(S(=O)(=O)NC(C)C(=O)Nc2ccc(-c3nc4ccccc4s3)cc2)c1 (stereo unspecified)	0.69	nt	99.8	i	-1.8	-1.0	nt
COCc1nc(-c2ccc(-c3ccccc3)nc2OC)no1	1	87.2	80.0	i	-2.3	-13.0	18.2
COc1ccc(C(=O)c2coc3c2C(=O)C(=O)c2ccccc2-3)cc1	0.67	nt	78.5	i	nt	nt	nt
CCCOc1ccc(C(=O)NCCC(=O)NCCCC(=O)O)cc1	1.11	nt	102.1	i	nt	nt	nt

Results in GALR2 ag, PKD1 kinase inh and RGS16-Gao HTS, for some of the entries so far:
structure | GALR2 ag | PKD1 kinase inh | RGS16-Gao HTS
CCCOc1ccc(C(=O)NCCC(=O)NCCCC(=O)O)cc1 | nt | nt | 102.1
O=C(NCc1ccccn1)C1CCN(Cc2cnn(-c3ccccc3)c2-n2cccc2)CC1 | 0.4 | -1.7 | nt
Cc1ccnc(SCCn2c(N3CCN(Cc4ccccc4)CC3)nc3c2c(=O)[nH]c(=O)n3C)n1 | 1.1 | -6.5 | 104.9
CCN(c1ccccc1)S(=O)(=O)c1ccc(NC(=S)NC(=O)c2cccs2)cc1 | -2.5 | 10.3 | 96.3
